High-throughput results from PubChem.
H5N1 CPE – MDCK cell protection from H5N1 avian flu. cytopathic effect, luminescence, 72 h; hits give high values; no value below 0 was filed and about half of the inactive calls have no number; reference of the scale not given here. inhibition, % at 50 µM. actives 0.07% (n = 96,000); in the data active = inhibition above about 25%
Active calls of the source: *; i = inactive. An excerpt; the hit share may differ from the screen's.

| molecule | H5N1 CPE |
| --- | --- |
| Cc1ccc(CNC(=O)CCNC(=O)c2ccc(Br)o2)cc1 | i |
| Cc1ccc(-n2ncc3c(NCc4ccccc4)ncnc32)cc1 | i |
| NC(=O)c1cc(-c2ccccc2)nc(Oc2ccccc2)n1 | 2.9 |
| O=C(CCS(=O)(=O)c1cc(Br)cc2c1N(C(=O)C1CC1)CC2)NCC1CCCO1 (stereo not drawn) | 0.1 |
| CCCOC(=O)C1=C(C)NC2=C(C(=O)CCC2)C1c1cccs1 (stereo not drawn) | i |
| Cc1nc2ncnn2c(C)c1CCC(=O)NCCc1ccccc1 | i |
| CCNc1nc(N)nc(Oc2ccc(OCC)nn2)n1 | i |
| COc1ccc(NC(=O)C2CCN(C(=O)c3ccccc3)CC2)cc1OC | i |
| N#Cc1c(Nc2ccc(F)cc2)sc(C(=O)c2ccc(F)cc2)c1N | 0.3 |
| O=C(c1ccc(CNS(=O)(=O)c2cccc(C(F)(F)F)c2)cc1)N1CCOCC1 | 2.5 |
| Cc1noc(C)c1CSc1nnc(-c2cccnc2)n1C1CCCCC1C (stereo not drawn) | 2.3 |
| COc1ccc(OC)c(S(=O)(=O)N2Cc3ccccc3CC2C(=O)O)c1 (stereo not drawn) | i |
| Cc1cc(NC(=O)C2CCN(S(=O)(=O)c3cnc[nH]3)CC2)ccc1Br | 0.9 |
| CC1=C(C(=O)OC(C)C)C(c2ccccc2Cl)CC(=O)N1 (stereo not drawn) | 0.1 |
| Cc1cc(C)c(C(=O)COc2cccnc2[N+](=O)[O-])cc1C | i |
| CC(C)OC(=O)c1cccnc1SCc1cc(=O)n2ccccc2n1 | 0.4 |
| COC(=O)c1c(NC(=O)Cc2ccccc2)sc(C)c1C | i |
| CCN(CC)S(=O)(=O)c1cccc(NC(=O)COC(=O)CCc2nc3ccccc3s2)c1 | 0.9 |
| CCCCCCP(=O)(O)c1ccccc1 | i |
| Cc1ccc(-c2nc3ccccc3n2C)o1 | 0.0 |
| O=C(CS(=O)(=O)Cc1ccccc1)Nc1nc2c(s1)CCCC2 | i |
| COc1cccc(CNC(=O)CSCc2cnn(-c3ccccc3)c2-n2cccc2)c1OC | 0.6 |
| Cc1nn(Cc2cccc(C(=O)NC3CCCCC3)c2)c(C)c1Cl | 1.0 |
| Cc1cc(C)n2nc(CC(=O)NC3CCCCCCC3)nc2n1 | i |
| COc1cccc(/C=N/NC(=O)c2[nH]c(C)c(C(=O)N/N=C/c3cccc(OC)c3O)c2C)c1O | 1.9 |
| COc1cccc(OC)c1C(=O)Nc1cc(Cl)ccc1N1CCOCC1 | 0.2 |
| O=C1S/C(=C\c2ccc(N3CCOCC3)o2)C(=O)N1Cc1ccc(F)cc1 | i |
| Cc1c(CNC(=O)c2nn3c(c2Cl)NC(c2ccccc2)CC3C(F)(F)F)cnn1C (stereo not drawn) | i |
| Cc1ccc(C)c(Cn2c(C(=O)OC(C)C)cc3c2ccn3C)c1 | i |
| Cc1cc(Nc2ccccc2)n(-c2ccccc2)n1 | 0.1 |
| COc1ccccc1C(=O)N1CCCN(C(=O)c2ccccc2OC)CC1 | i |
| NC(=O)c1ccccc1NC(=O)CCCN1C(=O)CCC1=O | i |
| COc1ccc(/C=N/N=C/c2ccc(OC)c(O)c2)cc1O | 0.3 |
| CCOc1ccc(NC(=O)CSc2nnc(-c3ccccc3)n2N)cc1 | 0.2 |
| Cc1ccc(C)c(OCc2nc(-c3cccnc3)no2)c1 | i |
| CCNC(=O)N1CCNC(=O)C1CC(=O)OC (stereo not drawn) | i |
| COc1ccc(NC(=O)N2CCOCC2)cc1OC | 0.1 |
| CCn1c2ccccc2c2cnc(N=CN(C)C)c(C#N)c21 | 2.4 |
| CCCCn1c(CN2CCN(c3cccc(Cl)c3)CC2)nc2c1c(=O)n(C)c(=O)n2C | 0.3 |
| O=c1cc(N2CCOCC2)[nH]c(=O)n1-c1ccc(Cl)cc1 | 4.0 |
| COc1ccc(/C=N/N(C(C)=O)c2nc(-c3ccc(C)cc3)cs2)cc1 | 0.6 |
| CC(=O)Nc1nc2n(n1)C(c1ccccc1)C=C(c1ccccc1)N2 (stereo not drawn) | 0.2 |
| CC(=O)N1CCn2c3c(c(=O)c4cc(C)ccc42)CCC31 (stereo not drawn) | 1.3 |
| O=C(OCCN1CCCCC1)c1ccc(O)cc1 | 0.8 |
| COc1ccc2c(Cl)c(C(=O)NN)sc2c1 | i |
| CC(C)CCNC(=O)c1cccc(C(=O)NCCC(C)C)c1 | 0.8 |
| COC(=O)c1ccc(OC(=O)C2CC(=O)N(c3ccc(C)cc3C)C2)cc1 (stereo not drawn) | i |
| O=C(N/N=C/c1ccco1)c1cc(-c2cccc3ccccc23)n[nH]1 | i |
| CCOC(=O)C1C(=O)NC(N2CCOCC2)=NC1C(C)C (stereo not drawn) | i |
| CC(=Nc1ccccc1C)C1=C(O)CSC1=O | i |
| CCOc1ccccc1C(=O)Nc1nccs1 | 0.7 |
| CCN(CC)C(=O)CN(c1cccc(OC)c1)S(=O)(=O)c1ccc(C)cc1 | 0.2 |
| CC(NC(=O)CN1CCC(C(N)=O)CC1)c1ccccc1 (stereo not drawn) | 0.1 |
| CCOC(=O)c1cccnc1SC(CC)C(=O)N1CCOCC1 (stereo not drawn) | 1.9 |
| CN1CCN(C(CNS(=O)(=O)c2ccc(Cl)cc2)c2cccnc2)CC1 (stereo not drawn) | i |
| CCn1cc(-c2cc(C(F)(F)F)n3nc(C(=O)O)cc3n2)c(C)n1 | i |
| COC(=O)c1ccccc1NC(=O)CSc1nnnn1C1CCCCC1 | 1.9 |
| CCOc1cc(-c2noc(CCC(=O)Nc3cccnc3)n2)ccc1OC | 0.4 |
| COC(=O)CCCCC1SCC2NC(=O)NC21O (stereo not drawn) | 0.5 |
| CC(C)Nc1nc(Oc2ccc(Cl)cc2Cl)cc(C(F)(F)F)n1 | 5.0 |

Further results follow:
| molecule | H5N1 CPE |
| --- | --- |
| COC(=O)c1cc2sc(Cl)cc2n1CC(=O)NCC1CCCO1 (stereo not drawn) | i |
| COc1ccc(NCc2nnc(SCc3ccccc3)n2-c2ccc(OC)cc2)cc1 | i |
| Cc1ccc(C(NC(=O)NCCCN2CCOCC2)=C(Cl)Cl)cc1F | 5.2 |
| CCOC(=O)c1c(CN2CCCCC2)n(C)c2cc(Br)c(OC)cc12 | i |
| Nc1nc(SCC(=O)NC2CCCCCC2)[nH]c(=O)c1-c1ccccc1 | 0.0 |
| C=CCSc1nnc(NC(=O)c2nc(SCC)ncc2Cl)s1 | 13.3 |
| NC(=O)C(c1ccc(Cl)cc1)c1ncc(C(F)(F)F)cc1Cl (stereo not drawn) | 1.1 |
| O=[N+]([O-])c1cc(C(F)(F)F)ccc1N/N=C/c1cc2ccccc2nc1Cl | i |
| CCOc1ccccc1C(=O)N1CCN(C(c2ccccc2)c2ccccc2)CC1 | 1.9 |
| O=C(CCNS(=O)(=O)c1ccc(Br)s1)Nc1ccc(Cl)cc1 | 0.0 |
| COC(=O)C(NC(=O)CCc1c(C)nc2ncnn2c1C)C(C)C (stereo not drawn) | i |
| O=C(Nc1nc2ccc(S(=O)(=O)N3CCCC3)cc2s1)C1CCCCC1 | i |
| Cc1onc(-c2c(F)cccc2Cl)c1C(=O)Nc1nnc(-c2ccccc2)s1 | i |
| CCc1nc2cc(C)nn2c2nc3ccccc3n12 | 2.3 |
| Cc1cccc(N2C(=O)CC(N3CCN(c4cccc(C(F)(F)F)c4)CC3)C2=O)c1 (stereo not drawn) | i |
| Cc1cc(NC(=O)CCC(=O)N(CC(=O)NC2CCCC2)c2ccc3c(c2)OCCO3)no1 | 0.1 |
| CNC(=O)COC(=O)c1ccc(-c2nc3ccccc3s2)s1 | i |
| CCNC(=O)CC1C(=O)N(c2ccc(F)cc2)C(=O)N1CCc1ccc(OC)cc1 (stereo not drawn) | i |
| O=C(c1ccccc1NS(=O)(=O)c1ccc(Br)s1)N1CCOCC1 | i |
| Cc1c([N+](=O)[O-])cc(C(=O)Oc2ccc(Br)cc2C(=S)N2CCCCC2)cc1[N+](=O)[O-] | 0.7 |
| Cc1ccc(-c2nnc(N3CCCCC3)c3ccccc23)cc1S(=O)(=O)N(C)C | i |
| O=c1[nH]c2ccc(S(=O)(=O)N3CCN(C4CCCCC4)CC3)cc2[nH]c1=O | i |
| CN(C)c1ccc(/C=N/N=C2/NC(=O)/C(=C/c3ccc([N+](=O)[O-])cc3)S2)cc1 | i |
| CN1CCN(Cc2cccc(Oc3ccccc3)c2)CC1 | i |
| O=C(NCc1ccco1)C1c2ccccc2Oc2ccccc21 | 1.1 |
| O=C(Nc1cccc(-c2cn3cccnc3n2)c1)c1ccc(Br)o1 | i |
| CCC(=O)N(Cc1cc(=O)[nH]c2ccccc12)C1CCCCC1 | 0.8 |
| O=C(Nc1cccc(Cl)c1)c1ccc(NCCCN2CCOCC2)c([N+](=O)[O-])c1 | i |
| COc1ccc(/C=N/Nc2nccnc2Cl)cc1 | i |
| O=[N+]([O-])c1ccc2nc(-c3ccccc3)n(OCc3ccc(Cl)cc3)c2c1 | 3.0 |

Taken from above, 4 compounds:
| molecule | H5N1 CPE |
| --- | --- |
| CCC(=O)N(Cc1cc(=O)[nH]c2ccccc12)C1CCCCC1 | 0.8 |
| O=C(Nc1cccc(Cl)c1)c1ccc(NCCCN2CCOCC2)c([N+](=O)[O-])c1 | i |
| COc1ccc(/C=N/Nc2nccnc2Cl)cc1 | i |
| O=[N+]([O-])c1ccc2nc(-c3ccccc3)n(OCc3ccc(Cl)cc3)c2c1 | 3.0 |

The results go on:
| molecule | H5N1 CPE |
| --- | --- |
| CCS(=O)(=O)c1nc2ccccc2n1CC(=O)N1CCCCC1 | i |
| COc1ccc2[nH]cc(C(=O)CN3CCN(C(=O)c4ccco4)CC3)c2c1 | i |
| Cc1ccc(N(CC(O)CN2CCCC2)S(=O)(=O)c2ccc(C)cc2)cc1 (stereo not drawn) | i |
| COc1ccc(-n2c(SCC(N)=O)nnc2-c2ccccc2F)cc1 | i |
| CCN(CC)c1ccc(/C=C/c2nc3ccccc3s2)cc1 | i |
| COc1ccc(NC(=O)Nc2cccc(C)n2)cc1 | 0.3 |
| CSc1ccccc1-n1nnnc1SCC(=O)Nc1ccccc1C | i |
| Cc1cc(C)c(OC2(c3ccccc3)OC(=O)c3ccccc32)c(C)c1 (stereo not drawn) | 0.3 |
| COc1cccc(-c2csc(N3CCN(CC(=O)Nc4ccc5c(c4)OCO5)CC3)n2)c1 | i |
| COc1cc2c(cc1OC)CN(S(=O)(=O)c1ccc3c(c1)OCCO3)CC2 | i |
| Cc1cc(C)nc(N(C#N)CC(=O)Nc2ccccc2)n1 | 0.8 |
| CN1CCN(c2nc(-c3ccccn3)nc3ccccc23)CC1 | 1.2 |
| O=C(CSc1nnnn1-c1ccccc1)Nc1ncc(Cc2cc(Cl)ccc2Cl)s1 | i |
| COc1cccc(C(=O)Nc2cccc(OCC(=O)O)c2)c1 | 0.2 |
| Cc1cc(C)c(S(=O)(=O)N(CC(=O)O)C2CCCCC2)c(C)c1 | 1.0 |

The closing 4 compounds of the section before come first, to join the parts.
| molecule | H5N1 CPE |
| --- | --- |
| CN1CCN(c2nc(-c3ccccn3)nc3ccccc23)CC1 | 1.2 |
| O=C(CSc1nnnn1-c1ccccc1)Nc1ncc(Cc2cc(Cl)ccc2Cl)s1 | i |
| COc1cccc(C(=O)Nc2cccc(OCC(=O)O)c2)c1 | 0.2 |
| Cc1cc(C)c(S(=O)(=O)N(CC(=O)O)C2CCCCC2)c(C)c1 | 1.0 |
| Cc1cnnc2c1-c1nonc1CC2 | i |
| Cc1cc(S(=O)(=O)N2CCN=C2c2ccccc2)ccc1F | i |
| C=CCn1c(SCC(=O)c2cccs2)nc2sc(C)cc2c1=O | 0.5 |
| Cc1cc(N2CCN(C)CC2)nc2ccc(NC(=O)c3ccc4c(c3)OCO4)cc12 | i |
| COc1ccccc1-c1nnc(NC(=O)OCC(C)C)s1 | 1.8 |
| CCCCNCc1cc(Br)c(OCC(=O)N2CCOCC2)c(OC)c1 | 3.0 |
| N=c1n(CCO)c2ccccc2n1Cc1ccc(Cl)cc1 | 1.2 |
| Cc1csc(NC(=O)C2CCCC2)n1 | 0.3 |
| CC12CCC(C(=O)Nc3cc(Cl)ccc3Cl)(C/C1=N\O)C2(C)C (stereo not drawn) | 1.0 |
| CC(=O)c1ccc(OCC(O)CN2CC(C)OC(C)C2)cc1 (stereo not drawn) | i |
| Cc1ccc(S(=O)(=O)NCC(=O)OC(C(=O)c2ccccc2)c2ccccc2)cc1 (stereo not drawn) | i |
| O=C1CC(N2CCC(O)(c3ccc(Cl)cc3)CC2)C(=O)N1 (stereo not drawn) | i |
| COc1ccc(C(=O)Nc2ccc(S(=O)(=O)N3CCCC3)cc2)c(OC)c1 | 0.1 |
| CC1=NN2C(=N)/C(=C\c3ccc(SCc4ccccc4)o3)C(=O)N=C2S1 | i |
| COc1ccc(OC)c(-c2cc(C3CCN(c4cc(Cl)nc(N)n4)CC3)[nH]n2)c1 | 0.1 |
| CCc1nnc(NC(=O)C2CC(=O)N(Cc3ccco3)C2)s1 (stereo not drawn) | 0.6 |
| O=C(CCCSc1nc2sc3c(c2c(=O)[nH]1)CCC3)NCCCO | 1.6 |
| Cc1ccoc1C(=O)NCCCNC(=O)c1occc1C | 0.5 |
| c1ccc(Cc2nnc3sc(-c4cccs4)nn23)cc1 | 2.4 |
| CCOc1ccccc1C1C2C(=O)N(c3ccccc3)C(=O)C2ON1c1ccccc1 (stereo not drawn) | 2.1 |
| CCOC(=O)c1cn(CC(=O)Nc2cccc(Cl)c2C)nn1 | 0.1 |
| CCOc1ccc2nc(Cl)c(/C=C/C(=O)c3ccco3)cc2c1 | 0.1 |
| CCN(CC)S(=O)(=O)c1cccc(-c2nnc(SCC(=O)NC3CCCCCC3)n2N)c1 | 0.5 |
| O=C(CSc1nnc(Cc2cccs2)n1Cc1ccco1)Nc1cccc(Cl)c1 | i |
| O=C(O)CCc1nn2c3ccccc3n(CCN3CCCCC3)c2nc1=O | 1.1 |
| CCc1ccc(NS(=O)(=O)c2ccc3[nH]cc(C(=O)N4CCCCC4)c(=O)c3c2)cc1 | 1.1 |
| Cc1cc(F)ccc1S(=O)(=O)Nc1ccccc1C(=O)Nc1ncn[nH]1 | 2.1 |
